Sfp PPTase inh = inhibitors of Bacillus subtilis Sfp phosphopantetheinyl transferase; Q9F4F7; Biochemical Sfp PPTase activity, qHTS; Potency, µM, inactives show max response, negative = inhibition, most hits filed as inhibitors; 310,000 tested, 3.5% active; AID 1490; active = well fitted inhibition curve with a large enough effect; inconclusive = small, poorly fitted or top-dose-only effect, or another doubt; inactive = no such curve, though single readings can be large or run the other way;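 also: the enzyme is Sfp with the accession as filed and its product quenches rhodamine fluorescence; potency is read from the fitted curve at half-maximal effect; 0% = enzyme reaction without inhibitor and -100% = no enzyme wells; top concentration of the series not given in the record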
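Buffer: 50 mM Hepes-Na pH 7.6, 10 mM MgCl2, 0.01% Nonidet P-40, 0.01% BSA. Enzyme 15 nM, pre-exposed to compound 15 min; substrates then added and fluorescence change tracked over 30 min.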
Menin MLL FP FL = inhibitors of human menin-MLL interaction, wild-type MLL peptide. Fluorescence polarization, fluorescein-MLL peptide displacement from menin. FP activity change, % at 61.4 µM. 290,000 tested, under 10 active; inconclusive = falling polarisation curve, or a change in total fluorescence; inactive = total fluorescence flat and polarisation flat or rising; no compound was filed as active; the % refers to the polarisation; negative = inhibition;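 also: % of control where 0% means no effect; inhibitors lower the polarisation; unlabelled MLL peptide was the positive control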
ClpP mod = qHTS Assay for Activators of ClpP. 340,000 tested, 1.9% active. ATP-dependent Clp protease proteolytic subunit (Bacillus subtilis (strain 168)), P80244. AID 651965, 2013. Potency, µM (series often up to 57.5 µM), for inactives: top-dose activity change, negative = active. purified B. subtilis ClpP, FRET peptide cleavage, 20 min; active = well fitted falling curve with a large enough effect; inconclusive = small, poorly fitted or top-dose-only effect; inactive = no such curve, though single readings can be large or run the other way; also: potency is read from the fitted curve at half-maximal effect; the source files actives as falling curves though it sought activators and does not explain the sign; nearly all actives have a fitted effect of over 65% in size; many hits overshoot -100%
Target sequence (P80244 whole entry, looked up): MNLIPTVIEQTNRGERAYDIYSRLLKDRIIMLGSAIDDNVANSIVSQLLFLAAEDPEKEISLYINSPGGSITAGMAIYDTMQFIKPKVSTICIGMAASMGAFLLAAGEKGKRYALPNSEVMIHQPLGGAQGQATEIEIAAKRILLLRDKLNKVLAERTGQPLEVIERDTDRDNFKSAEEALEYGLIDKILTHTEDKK
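Purified B. subtilis ClpP, 10 microg/mL final in Tris/HCl pH8 with KCl, BSA, glycerol and Tween-20, cleaved an Abz/nitrotyrosine-quenched decapeptide. Fluorescence (ex 320, em 430) was read at 0 and 20 min at room temperature. Delta was normalized to 5.8 microM ADEP and DMSO/no-enzyme controls.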
TRPML1 agonist = activates the human TRPML1 channel; Q9GZU1; TRPML1-expressing cells, Ca2+ dye fluorescence, FDSS; host cell line not named in the record; reference of the full effect not given here; activation, % (no concentration beside the values); 410,000 tested, 0.12% active; AID 624414; in the data active = activation above about 50%; inconclusive = about 30% to 50%; inactive = below about 30%; also: 0% is about no effect; the text of the record puts the active cut at 80%
Target sequence (Q9GZU1 whole entry, looked up): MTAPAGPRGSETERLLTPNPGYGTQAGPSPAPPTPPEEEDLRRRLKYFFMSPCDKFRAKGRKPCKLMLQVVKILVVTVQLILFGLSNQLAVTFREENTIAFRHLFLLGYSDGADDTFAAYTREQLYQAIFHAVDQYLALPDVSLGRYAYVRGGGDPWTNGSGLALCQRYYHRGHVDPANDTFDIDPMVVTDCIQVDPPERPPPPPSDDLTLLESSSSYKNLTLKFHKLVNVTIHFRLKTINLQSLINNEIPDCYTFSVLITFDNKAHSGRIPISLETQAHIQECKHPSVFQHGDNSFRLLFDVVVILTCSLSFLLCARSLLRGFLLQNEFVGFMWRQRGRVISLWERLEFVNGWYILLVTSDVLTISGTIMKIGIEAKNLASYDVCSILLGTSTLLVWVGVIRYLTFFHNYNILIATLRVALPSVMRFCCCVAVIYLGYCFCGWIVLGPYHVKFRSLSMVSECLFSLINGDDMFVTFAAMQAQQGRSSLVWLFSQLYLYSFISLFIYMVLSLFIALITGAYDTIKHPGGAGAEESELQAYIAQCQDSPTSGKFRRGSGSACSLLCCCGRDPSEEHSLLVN
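Agonist activity was taken from a 110 s kinetic Ca2+ dye read on the FDSS after pinning compounds onto TRPML1-DL cells. The cells were seeded at 1,500/well with Tet inducer, incubated about 16 h, then dye-loaded at room temperature.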
TRPV1 potentiator = human TRPV1 potentiation. potentiation, % at 8.33 µM. 320,000 tested, 0.02% active. TRPV1-expressing cells, Fluo-8 calcium influx, capsaicin EC20 potentiation; host cell line not named in the record; control for the full effect not named in the record. Q8NER1. AID 540277; active means potentiation above 80%; inconclusive means 30% to 80%; inactive means below 30%; also: 0% is about no effect
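TRPV1-expressing cells were cultured overnight at 35.5C and loaded with Fluo-8 calcium dye for 40 to 90 min at room temperature. After a 10 s baseline, compound was added and calcium influx was read kinetically for 3 min (ex 480/em 520 nm).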
TRPML1 blocker = human mucolipin-1 channel inhibition | activity change, negative = inhibition, % (concentration not given with the values) | TRPML1-inducible cells, Ca2+ dye fluorescence, FDSS; stronger effect = lower value; inhibition of EC80 agonist-evoked calcium signal | 390,000 tested, 0.02% active | Q9GZU1; in the data active means activity change below about -50%; inconclusive means about -30% to -50%; inactive means above about -30%;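 also: stimulus is agonist 54-4 at its EC80 concentration; % is scaled to controls: 0 for no effect and ±100 for the full control effect; compound concentration not given in the record; the text of the record puts the active cut at -80%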
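TRPML1-DL cells, Tet-induced overnight (~16 h, 37 °C) at 1,500 cells/well, were loaded with Ca8 no-wash dye plus quencher for 45-90 min at room temperature. Compounds were pinned during FDSS kinetic reading; agonist 54-4 at EC80 (4 uM final) then added.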
PINK1 modulator = changes PINK1 expression; AID 624263; PINK1 immunofluorescence, high-content cytometry, 24 h; 410,000 tested, 0.2% active; Potency, µM (highest dose often 76.6 µM), for the others: at the highest dose activation (PINK1 increase), actives largely listed as activators; active = well fitted activation curve with a large enough effect; inconclusive = small, poorly fitted or top-dose-only effect; inactive = flat fitted curve, though single readings scatter; cell line not stated here;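 also: potency is read from the fitted curve at half-maximal effect; % of control where 0% means no effect; nearly all actives have a fitted effect of over 65% in size; a mitochondrial uncoupler was the plate control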
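A stable cell line was treated with compounds at 5 concentrations for 24 hours, with CCCP as control. PINK1 levels and mitochondrial localization were measured by immunofluorescence with mitochondrial, cell and nuclear markers after fixation, read by laser-scanning cytometry.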
* marks the source's active call; other numbers are inactive results; [ ] = another dose, or the depositor's remark.

For CCOc1ccccc1-n1nnnc1SCC(=O)NC(=O)Nc1ccc2c(c1)OCCO2 the results were Sfp PPTase inh 13.5%, Menin MLL FP FL -6.4, ClpP mod -4.0%, TRPML1 agonist 0.8, TRPV1 potentiator -1.7, TRPML1 blocker 36.4 and PINK1 modulator 0.8%.
Screening Cc1cc2c(=O)n(C)c(SCC(=O)Nc3ccccc3C)nc2s1 returned TRPML1 agonist 5.9, TRPV1 potentiator -0.9, TRPML1 blocker -13.4 and PINK1 modulator 1.9%.
For CCN(CC(=O)NCc1cccs1)C(=O)c1cccc(S(=O)(=O)NCc2ccccc2)c1 the results were ClpP mod -1.5%, TRPML1 agonist 0.0, TRPV1 potentiator -2.3, TRPML1 blocker -16.6 and PINK1 modulator 0.0%.
Screening COc1ccc(/C=C2\SC(=O)N(CCNC(=O)CCS(=O)(=O)c3ccc(C)cc3)C2=O)cc1 returned Sfp PPTase inh 0.5%, Menin MLL FP FL 4.0, ClpP mod -10.7%, TRPML1 agonist 2.1, TRPV1 potentiator -1.8, TRPML1 blocker 9.5 and PINK1 modulator 0.3%.
Cc1ccc(NC(=O)CCS(=O)(=O)c2cccc3nonc23)c(Cl)c1 was read as Sfp PPTase inh 5.0%, Menin MLL FP FL 5.7, TRPML1 agonist -0.5, TRPV1 potentiator -3.9, TRPML1 blocker 21.9 and PINK1 modulator 8.3%.
COc1cc(/C=N\Nc2cc(=O)n(C)c(=O)n2C)ccc1O was read as Sfp PPTase inh -5.6%, ClpP mod -6.5%, TRPML1 agonist 2.0, TRPV1 potentiator -5.9, TRPML1 blocker 0.3 and PINK1 modulator -2.3%.
COc1ccc(C)cc1-n1nnnc1SC/C(O)=C(\C#N)c1nc2ccccc2[nH]1 was read as Sfp PPTase inh -4.3%, Menin MLL FP FL 8.3, ClpP mod 5.7%, TRPML1 agonist 2.0, TRPML1 blocker -5.8 and PINK1 modulator 4.3%.
`Cc1ccccc1C(=O)N[C@H](C(=O)OCC(=O)NC1CC1)C(C)C` gave ClpP mod 0.8%, TRPML1 agonist -0.6, TRPML1 blocker -11.4 and PINK1 modulator 0.8%.
Screening COc1ccc(NC(=O)N/C=C/c2ccc(Cl)cc2)cc1 returned Sfp PPTase inh 12.4%, Menin MLL FP FL 0.4, TRPML1 agonist 2.7, TRPV1 potentiator -11.8, TRPML1 blocker -9.7 and PINK1 modulator -2.3%.
For CC(Oc1cc2oc(=O)c3c(c2cc1Cl)CCC3)C(=O)NC1CC(C)(C)NC(C)(C)C1 (configuration not stated) the results were Sfp PPTase inh -4.4%, ClpP mod 4.5%, TRPML1 agonist 0.2, TRPV1 potentiator 4.1, TRPML1 blocker 6.4 and PINK1 modulator -1.6%.
For CCc1nc2c(OCc3cccc(Cl)c3)cccn2c1N(C)C(=O)C(C)C the results were ClpP mod 0.9%, TRPML1 agonist 1.7 and PINK1 modulator 1.2%.
For CC1(NC(=S)NCCO)CCS(=O)(=O)C1 (configuration not stated) the results were Sfp PPTase inh 18.4%, Menin MLL FP FL 2.8, ClpP mod 1.4%, TRPML1 agonist 0.5, TRPV1 potentiator 1.1, TRPML1 blocker 16.6 and PINK1 modulator 0.1%.
For COc1ccc(-c2noc3c2-c2nc(-c4ccccc4)sc2CC3)cc1 the results were ClpP mod 4.2%, TRPML1 agonist -0.1, TRPML1 blocker -7.8 and PINK1 modulator 1.8%.
Screening O=C(Nc1ccccc1C(F)(F)F)Nc1c[nH]c(=O)[nH]c1=O returned ClpP mod -0.5%, TRPML1 agonist 1.0, TRPML1 blocker -27.9 and PINK1 modulator -0.7%.
Screening CCOC(=O)CNC(=O)CSc1nc2cccnc2n1C1CCCCC1 returned Sfp PPTase inh 6.5%, Menin MLL FP FL 0.5, ClpP mod -1.2%, TRPML1 agonist -1.2, TRPV1 potentiator 3.1, TRPML1 blocker 2.2 and PINK1 modulator -0.4%.
`NC(=O)Cn1cnc(-c2ccccc2)c1` gave Sfp PPTase inh 7.3%, Menin MLL FP FL 1.7, ClpP mod 1.9%, TRPML1 agonist 0.0, TRPV1 potentiator 8.6, TRPML1 blocker 4.7 and PINK1 modulator -0.1%.
For O=C(CCNc1cccc(F)c1)c1cccc([N+](=O)[O-])c1 the results were Sfp PPTase inh 20.1%, Menin MLL FP FL -6.7, ClpP mod 0.1%, TRPML1 agonist -1.4, TRPV1 potentiator -2.9, TRPML1 blocker -8.1 and PINK1 modulator -0.2%.
For CCC1CCCCN1CCCNC(=O)c1ccc(N2CCOCC2)c(NS(=O)(=O)c2ccc(OC)cc2)c1 (configuration not stated) the results were Sfp PPTase inh 17.0%, Menin MLL FP FL 4.6, TRPML1 agonist -0.4, TRPV1 potentiator -1.4, TRPML1 blocker 44.5 and PINK1 modulator -1.1%.
For COc1cc(C(=O)N2CCC(NC(=O)C(Cc3ccccc3C)NC(C)=O)CC2)cc(OC)c1OC (configuration not stated) the results were Sfp PPTase inh -9.3%, Menin MLL FP FL -1.8, ClpP mod -0.9%, TRPML1 agonist 1.0, TRPV1 potentiator 4.4, TRPML1 blocker -9.6 and PINK1 modulator 6.8%[38.3 µM].
Screening S=C(NCc1ccc2[nH]c3c(c2c1)CCCC3)Nc1ccccc1 returned Sfp PPTase inh 5.2%, Menin MLL FP FL 0.0, ClpP mod -0.4%, TRPML1 agonist 0.7, TRPV1 potentiator -5.2, TRPML1 blocker 6.0 and PINK1 modulator 13.2%.
Screening COc1ccc(CNC(=O)CSc2nnc(C)s2)cc1 returned Sfp PPTase inh -0.1%, Menin MLL FP FL 0.8, ClpP mod -2.2%, TRPML1 agonist -0.6, TRPV1 potentiator inconclusive, TRPML1 blocker 4.5 and PINK1 modulator 9.5%[38.3 µM].
Screening Cc1cc(OCC(=O)Nc2sc3c(c2C#N)CCC(C)C3)ccc1Cl (configuration not stated) returned ClpP mod -0.1%, TRPML1 agonist -0.4, TRPML1 blocker -10.5 and PINK1 modulator 0.5%.
For Clc1ccc(Cn2ncc3c(N4CCOCC4)ncnc32)cc1 the results were Sfp PPTase inh 13.3%, Menin MLL FP FL 0.1, ClpP mod 0.8%, TRPML1 agonist 0.9, TRPV1 potentiator -14.9, TRPML1 blocker 44.2 and PINK1 modulator 0.6%.
Cc1ccc(CCN2CC(C(=O)O)CC2=O)cc1 (configuration not stated) was read as Sfp PPTase inh 17.7%, Menin MLL FP FL 2.6, ClpP mod 0.0%, TRPML1 agonist 0.0, TRPV1 potentiator 10.4 and TRPML1 blocker -2.6.
O=C(COC(=O)c1cccc(-n2cnnn2)c1)c1ccc(F)c(F)c1 was read as ClpP mod 10.3%, TRPML1 agonist 0.0, TRPML1 blocker 3.4 and PINK1 modulator 4.2%.
For CCN(CC)S(=O)(=O)c1ccc(C(=O)NCc2n[nH]c(=S)n2-c2ccccc2OC)cc1 the results were Sfp PPTase inh -21.7%, Menin MLL FP FL 1.9, ClpP mod -0.1%, TRPML1 agonist 0.9, TRPV1 potentiator 6.5 and TRPML1 blocker -6.0.
For CCOc1ncccc1C(=O)OCC(=O)NCCc1ccc(S(N)(=O)=O)cc1 the results were ClpP mod -0.6%, TRPML1 agonist -0.2, TRPV1 potentiator -2.2, TRPML1 blocker 45.8 and PINK1 modulator -0.8%.
Screening Cc1cc(C)cc(N(C(C)C(=O)NCCC2=CCCCC2)S(C)(=O)=O)c1 (configuration not stated) returned Sfp PPTase inh 22.0%, Menin MLL FP FL -0.3, ClpP mod 1.7%, TRPML1 agonist 0.3, TRPV1 potentiator -17.1, TRPML1 blocker -5.2 and PINK1 modulator inconclusive.
`CC(=O)Nc1ccc(NS(=O)(=O)c2cccc3nonc23)cc1` gave Sfp PPTase inh 17.4%, Menin MLL FP FL -4.0, TRPML1 agonist 2.0, TRPV1 potentiator 6.5, TRPML1 blocker 35.1 and PINK1 modulator -0.9%.
Screening C=CCNC(=O)c1cc2sccc2n1C returned Sfp PPTase inh -3.1%, Menin MLL FP FL 2.8, ClpP mod -1.1%, TRPV1 potentiator 7.3 and PINK1 modulator 0.7%.
Screening O=C(Nc1ccc(N2CCOCC2)cc1)c1ccc(Cl)c(S(=O)(=O)N2CCCCC2)c1 returned ClpP mod 9.1%, TRPML1 agonist -0.1, TRPV1 potentiator -12.2, TRPML1 blocker -2.8 and PINK1 modulator 3.9%.
For Clc1ccc(OCc2noc(-c3ccsc3)n2)c(Cl)c1 the results were Sfp PPTase inh 3.1%, Menin MLL FP FL 5.8, TRPML1 agonist 0.1, TRPV1 potentiator 21.4, TRPML1 blocker -6.4 and PINK1 modulator 6.5%.
`Cc1ccc(S(=O)(=O)N2CCOCC2)cc1NC(=O)COc1ccc(-c2nnco2)cc1` gave Sfp PPTase inh 17.7%, Menin MLL FP FL -1.4, ClpP mod -5.1%, TRPML1 agonist -0.4, TRPV1 potentiator 6.4, TRPML1 blocker 3.0 and PINK1 modulator 0.3%.
Screening COc1cc2ncnc(NCc3cc(F)ccc3F)c2cc1OC returned Sfp PPTase inh 15.4%, Menin MLL FP FL 2.7, ClpP mod 0.9%, TRPML1 agonist -1.3, TRPV1 potentiator 1.6, TRPML1 blocker 10.3 and PINK1 modulator 1.1%.
For COCCNC(=O)C1(C)CCN(C(=O)c2oc3ccccc3c2C)C1 (configuration not stated) the results were ClpP mod -3.6%, TRPML1 agonist -0.6 and PINK1 modulator 1.6%.
Cc1ccc(N=Cc2ccc(N(C)C)cc2)cc1C was read as Sfp PPTase inh 7.3%, Menin MLL FP FL -0.8, TRPML1 agonist -0.3, TRPV1 potentiator 16.8, TRPML1 blocker 7.9 and PINK1 modulator 0.2%.
Screening CC1CCN(CCCNC(=O)c2cn(C)c3ccc(S(=O)(=O)N4CCCC4)cc3c2=O)CC1 returned Sfp PPTase inh 4.5%, Menin MLL FP FL -4.2, ClpP mod -0.2%, TRPML1 agonist -0.3, TRPV1 potentiator -13.6, TRPML1 blocker 4.6 and PINK1 modulator -2.2%[38.3 µM].
`COc1cccc(-n2ccnc2SCC(=O)Nc2cccc3ccccc23)c1` gave ClpP mod -1.6%, TRPML1 agonist 2.2, TRPML1 blocker -7.6 and PINK1 modulator -12.0%.
For CN(C)S(=O)(=O)c1cccc(NC(=O)COc2ccc(S(=O)(=O)N3CCOCC3)cc2Cl)c1 the results were ClpP mod -0.5%, TRPML1 agonist 0.2, TRPML1 blocker -6.9 and PINK1 modulator 4.7%.

Compound activity from PubChem.
